MT1-MMP act inh: blocks activation of human MT1-MMP; P50281; HT1080 RFP-PRO-GFP cells, GFP/RFP ratio fluorescence, overnight; percent of plate control window, DMSO zero; GFP/RFP ratio change, % at 20 µM; 0.061% of 360,000 active; AID 651647;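 active = GFP/RFP ratio change of at least 30% with cell ATP level not reduced by more than half and red fluorescence within 50% of control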; also: strong numbers were not always called active
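system = RFP-PRO-GFP reporter HT1080 cells | dosing = 20 µM single dose, 1% DMSO | timing = overnight cell settling, then overnight compound exposure, 37 °C, 5% CO2 | read-out basis = GFP/RFP fluorescence ratio | controls = DMSO and RFP-L50D-GFP cell wells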
PABP polyA inh: PABP-poly(A) binding inhibition. inhibition, % at 35 µM. 1% of 290,000 active. P11940. PABP-poly(A) RNA binding, fluorescence polarization. AID 2014;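 active = 50% or more with normal probe brightness, or confirmed in later tests; inconclusive = above 50% with abnormal brightness, or retests that disagree; inactive = below 50% or failed in later tests; about a fifth of its hits are not listed in these tables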;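 also: calls also rest on retests at 20 µM and on dose response follow-up; controls were probe without protein and protein plus probe with vehicle; some compounds called inactive have numbers as strong as hits; many hits fall short of the cut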
Target sequence (P11940 whole entry, looked up): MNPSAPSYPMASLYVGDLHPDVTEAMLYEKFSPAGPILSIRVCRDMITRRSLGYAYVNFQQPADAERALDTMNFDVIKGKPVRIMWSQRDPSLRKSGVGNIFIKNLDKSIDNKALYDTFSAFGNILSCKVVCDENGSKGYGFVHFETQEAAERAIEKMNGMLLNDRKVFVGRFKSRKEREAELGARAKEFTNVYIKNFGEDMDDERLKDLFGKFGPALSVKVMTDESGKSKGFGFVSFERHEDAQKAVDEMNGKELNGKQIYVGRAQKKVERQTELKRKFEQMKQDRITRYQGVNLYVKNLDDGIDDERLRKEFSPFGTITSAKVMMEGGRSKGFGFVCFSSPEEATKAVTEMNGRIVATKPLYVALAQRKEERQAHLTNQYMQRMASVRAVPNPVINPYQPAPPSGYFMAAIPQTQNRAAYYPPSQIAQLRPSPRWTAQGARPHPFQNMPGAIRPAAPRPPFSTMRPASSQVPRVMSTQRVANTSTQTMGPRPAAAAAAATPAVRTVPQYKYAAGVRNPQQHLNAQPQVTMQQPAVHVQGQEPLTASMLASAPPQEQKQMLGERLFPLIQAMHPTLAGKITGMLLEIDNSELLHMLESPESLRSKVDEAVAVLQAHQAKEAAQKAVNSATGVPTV
CSC inhib: blocks cancer stem cells. cancer stem cell-like cells viability, luminescence. inhibition, % at 7.5 µM. 1.1% of 300,000 active. AID 2717;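 active = mean at 75% or more and at least half the replicates too; inconclusive = mean and replicates disagree; tested in HMLE shEcad cells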;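 also: 0% = median of negative and 100% = median of positive control wells; the first replicate is given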
eIF4H inh: inhibitors of RNA binding by human eIF4H; Q15056; eIF4H fluorescence polarization binding assay; inhibition, % at 35 µM; 0.94% of 290,000 active; AID 2012;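 active = 50% or more with normal probe brightness, or confirmed in later tests; inconclusive = above 50% with abnormal brightness, or retests that disagree; inactive = below 50% or failed in later tests; about a fifth of its hits are not listed in these tables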;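 also: calls also rest on retests at 20 µM and on dose response follow-up; 0% = protein and probe with vehicle and 100% = probe without protein; strong numbers were not always called active; many hits fall short of the cut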
Env fusion inh: inhibitors of HIV Env-mediated cell fusion. HeLa-JRFL Env/CEM21 cell fusion, luciferase. inhibition, % at 12.3 µM. 1.1% of 360,000 active;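 active = mean replicate inhibition score of at least 50 and every replicate individually at or above 50; inconclusive = only one of the two criteria met; inactive = mean below 50 and not all replicates reaching 50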;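 also: 0% = plate neutral controls and 100% = maraviroc near 300 nM; one replicate is shown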
Rce1 inhib: inhibitors of yeast Ras-converting enzyme. Q03530. yeast membranes, quenched prenylated peptide cleavage fluorescence. calls only. 0.27% of 290,000 active. AID 2563;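 active = fall in fluorescence gain of 50% or more versus controls, with final raw signal at or below 3038400; inconclusive = same 50% fall but final raw signal above 3038400; inactive = fall in fluorescence gain under 50%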;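 also: plate controls were neutral control wells for no effect and wells lacking membranes for full effect; tested at 10 µM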
Target sequence (Q03530 whole entry, looked up): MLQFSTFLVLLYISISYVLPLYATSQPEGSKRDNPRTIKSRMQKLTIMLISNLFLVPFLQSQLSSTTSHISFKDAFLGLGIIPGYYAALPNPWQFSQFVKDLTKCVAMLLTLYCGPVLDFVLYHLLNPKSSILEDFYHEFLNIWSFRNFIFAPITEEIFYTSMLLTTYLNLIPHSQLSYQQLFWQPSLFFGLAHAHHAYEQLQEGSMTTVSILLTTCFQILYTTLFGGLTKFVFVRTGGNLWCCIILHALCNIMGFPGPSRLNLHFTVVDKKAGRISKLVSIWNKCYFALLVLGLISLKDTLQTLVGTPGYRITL
UUG fidelity: alters start codon recognition fidelity in yeast. AID 602363. 0.13% of 350,000 active. S. cerevisiae UUG-firefly luciferase reporter, luminescence/redox ratio. activity score, % at 18.7 µM;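 active = replicate mean at a twofold rise or more, about +100% in these data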;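 also: firefly luciferase made from a UUG start codon reports start codon fidelity; reporter light over untreated wells divided by growth signal over untreated wells; some hits fall short of that in this replicate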
eIF4H inh retest: recorded beside eIF4H inh, whose call it bears; inhibition, %; compound at 20 µM; confirmation average;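 mean of two retest wells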
PABP polyA inh retest: second read-out of PABP polyA inh, no call of its own (marks repeat the call); inhibition, %; compound at 20 µM; confirmation repeats;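 mean of two retest wells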
MT1-MMP act inh RFP: further read-out of MT1-MMP act inh, marked with its call; RFP signal change, %; measured here: RFP expression control read;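 0 = vehicle wells; hits needed this value within 50% of zero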
* hit, by the source's call.

For CCCc1nc2ccccc2c(C(=O)OC(C)C(=O)NCc2ccc3c(c2)OCO3)c1CC (configuration not stated) the results were MT1-MMP act inh -4, PABP polyA inh -11, CSC inhib 15, eIF4H inh -11, Env fusion inh -9, Rce1 inhib inactive, UUG fidelity -16 and MT1-MMP act inh RFP -4.
`Cc1cccc(C)c1OCCCn1ccnc1` gave MT1-MMP act inh 1, PABP polyA inh 32, CSC inhib -7, eIF4H inh 22, Env fusion inh -17, Rce1 inhib inactive, UUG fidelity -12 and MT1-MMP act inh RFP 2.
Cc1cc(C)cc(NC(=O)COC(=O)c2n[nH]c3ccccc23)c1 was read as MT1-MMP act inh -3, PABP polyA inh -4, CSC inhib 12, eIF4H inh -4, Env fusion inh -10, Rce1 inhib inactive and MT1-MMP act inh RFP -3.
`COc1ccc(OC)c(C2Nc3c(Cl)ccc(C(=O)O)c3C3C=CCC32)c1` (configuration not stated) gave MT1-MMP act inh 7, PABP polyA inh 73, CSC inhib 17, eIF4H inh 71*, Env fusion inh 18, Rce1 inhib inactive, eIF4H inh retest 74*, PABP polyA inh retest 39 and MT1-MMP act inh RFP 9.
Screening O=C(NCc1cccnc1)C1CCCN(S(=O)(=O)c2ccccc2)C1 (configuration not stated) returned MT1-MMP act inh -3, PABP polyA inh -3, CSC inhib -13, eIF4H inh -4, Rce1 inhib inactive, UUG fidelity -11 and MT1-MMP act inh RFP -4.
`O=C1S/C(=C\c2ccc(N3CCOCC3)o2)C(=O)N1c1ccccc1` gave MT1-MMP act inh -24, PABP polyA inh -5, CSC inhib -15, eIF4H inh inconclusive, Env fusion inh -21, Rce1 inhib inactive and MT1-MMP act inh RFP 8.
For CCOC(=O)c1nc(N)c(=O)n(-c2ccc(C)cc2)n1 the results were MT1-MMP act inh -1, PABP polyA inh -3, CSC inhib -11, eIF4H inh -9, Env fusion inh -72, UUG fidelity 3 and MT1-MMP act inh RFP 2.
`COc1ccc(CC(N)c2csc(NC(=O)NCCc3ccccc3)n2)cc1` (configuration not stated) gave MT1-MMP act inh 5, Env fusion inh 9, UUG fidelity -8 and MT1-MMP act inh RFP 1.
`COCCN(C(=O)C1CCCC1)c1c(N)n(Cc2ccccc2)c(=O)[nH]c1=O` gave MT1-MMP act inh -2, PABP polyA inh 14, CSC inhib -3, eIF4H inh 2, Env fusion inh 2, Rce1 inhib inactive, UUG fidelity -14 and MT1-MMP act inh RFP -1.
`COc1ccc(C(=O)N2CCc3cc(OC)c(OC)cc3C2c2ccc(OC)c(OC)c2)cc1` (configuration not stated) gave MT1-MMP act inh 4, PABP polyA inh 2, CSC inhib -1, eIF4H inh -13, Env fusion inh 14, Rce1 inhib inactive, UUG fidelity 10 and MT1-MMP act inh RFP -1.
Screening O=C(O)CCCC(=O)Nc1ccc(Cl)c(Cl)c1 returned MT1-MMP act inh 5, PABP polyA inh -2, CSC inhib -4, eIF4H inh -2, Rce1 inhib inactive, UUG fidelity -5 and MT1-MMP act inh RFP 3.
Cc1ccc(S(=O)(=O)CCSc2ccc(C(F)(F)F)cn2)cc1 was read as MT1-MMP act inh 1, PABP polyA inh 4, CSC inhib 0, eIF4H inh -14, Env fusion inh 19, Rce1 inhib inactive, UUG fidelity 0 and MT1-MMP act inh RFP 1.
`Cc1cc(C(=O)N2CCOCC2)c(C)o1` gave MT1-MMP act inh -1, PABP polyA inh 6, CSC inhib -9, eIF4H inh -2, Env fusion inh -3, Rce1 inhib inactive, UUG fidelity -18 and MT1-MMP act inh RFP 0.
`CN(CCC#N)C(=O)COC(=O)c1ccc(Cl)c(S(N)(=O)=O)c1` gave MT1-MMP act inh 4, PABP polyA inh -2, CSC inhib 3, eIF4H inh -5, Env fusion inh 9, Rce1 inhib inactive, UUG fidelity -15 and MT1-MMP act inh RFP 8.
For CCC(=O)Nc1nc(C)c(-c2csc(Nc3cccc(O)c3)n2)s1 the results were MT1-MMP act inh -8, PABP polyA inh 8, CSC inhib 77*, eIF4H inh 8, Env fusion inh 21, Rce1 inhib inactive, UUG fidelity -11 and MT1-MMP act inh RFP -7.
For CCOC(=O)c1cc(-c2cccs2)nc2onc(C)c12 the results were MT1-MMP act inh 4, PABP polyA inh 8, CSC inhib 6, eIF4H inh 2, Rce1 inhib inactive, UUG fidelity -5 and MT1-MMP act inh RFP 2.
`CN1CCN(c2ccc(-c3cccc(NC(=O)COc4ccc(Cl)cc4)c3)nn2)CC1` gave MT1-MMP act inh 8, CSC inhib 48, Env fusion inh -90, Rce1 inhib inactive, UUG fidelity -22 and MT1-MMP act inh RFP 2.
CSc1nncc(/C(C)=N\Nc2ccccc2C)n1 was read as MT1-MMP act inh -2, PABP polyA inh 5, CSC inhib -5, eIF4H inh 0, Rce1 inhib inactive, UUG fidelity -17 and MT1-MMP act inh RFP 1.
`Cc1nccc(-c2cccc(N/N=C(\C#N)C(=O)c3ccccc3)c2)n1` gave PABP polyA inh 14, CSC inhib 24, eIF4H inh 2, Env fusion inh 25 and Rce1 inhib inactive.
For CCn1cc(C(=O)N[C@H](C)c2ccccc2)c(=O)c2cc(F)c(N3CCN(C)CC3)cc21 the results were MT1-MMP act inh 9, PABP polyA inh -17, CSC inhib 75*, eIF4H inh 6, Rce1 inhib active and MT1-MMP act inh RFP 0.
Screening Cn1cnnc1SCC(=O)N1CCc2ccccc2C1 returned MT1-MMP act inh -3, Env fusion inh 10, UUG fidelity -6 and MT1-MMP act inh RFP -1.
`CCN(C1CCCCC1)S(=O)(=O)c1ccc(-n2cnnn2)c(C)c1` gave MT1-MMP act inh 3, PABP polyA inh 3, CSC inhib -9, eIF4H inh 0, Env fusion inh -6, Rce1 inhib inactive, UUG fidelity 6 and MT1-MMP act inh RFP 2.
For CN[C@H](CC(=O)O)C(=O)O the results were MT1-MMP act inh 2, CSC inhib -7, Env fusion inh 5, Rce1 inhib inactive, UUG fidelity -12 and MT1-MMP act inh RFP 6.
O=C(NCC1COc2ccccc2O1)c1ccc(Cl)cc1 (configuration not stated) was read as MT1-MMP act inh 3, PABP polyA inh -3, CSC inhib -4, eIF4H inh 3, Env fusion inh -108, Rce1 inhib inactive, UUG fidelity -39 and MT1-MMP act inh RFP 1.
COc1ccc(Oc2c(-c3ccc(O)cc3O)n[nH]c2C)cc1 was read as MT1-MMP act inh 2, PABP polyA inh 8, CSC inhib -6, eIF4H inh -14, Env fusion inh -4, Rce1 inhib inactive, UUG fidelity -20 and MT1-MMP act inh RFP 2.
`Cc1cccc(OC(=O)c2cccnc2)c1` gave MT1-MMP act inh -3, PABP polyA inh 2, CSC inhib -14, eIF4H inh 8, Rce1 inhib inactive, UUG fidelity -5 and MT1-MMP act inh RFP 1.
COc1cc(CNc2ncnc3c2ncn3[C@H]2CN(CCc3ccccc3)C[C@@H](CO)O2)cc(OC)c1OC was read as MT1-MMP act inh -7, Env fusion inh -20, UUG fidelity -3 and MT1-MMP act inh RFP -6.
For Cc1cc(=O)oc2cc(NC(=O)CCOc3ccccc3)ccc12 the results were MT1-MMP act inh 2, PABP polyA inh -4, CSC inhib 7, eIF4H inh -5, Env fusion inh 5, UUG fidelity 0 and MT1-MMP act inh RFP 0.
For Cc1ccc(C(=O)N2CCN(S(=O)(=O)N3CCCCC3)CC2)cc1 the results were MT1-MMP act inh 0, PABP polyA inh 3, CSC inhib -2, eIF4H inh -2, Env fusion inh 7, Rce1 inhib inactive, UUG fidelity -9 and MT1-MMP act inh RFP 3.
`COc1ccc(NC(=O)/C(C#N)=C/c2cc(C)n(-c3ccc(N4CCOCC4)c([N+](=O)[O-])c3)c2C)cc1` gave MT1-MMP act inh 22, PABP polyA inh -2, CSC inhib 4, eIF4H inh 17, Env fusion inh 16, Rce1 inhib inactive, UUG fidelity -11 and MT1-MMP act inh RFP -17.
For O=C(CSC1=NCCS1)Nc1ccc(S(=O)(=O)NC2CCCCC2)cc1 the results were MT1-MMP act inh 0, PABP polyA inh -6, CSC inhib -7, eIF4H inh -2, Env fusion inh -6, Rce1 inhib inactive, UUG fidelity -14 and MT1-MMP act inh RFP -2.
For C/C(=N/NC(=O)CNC(=O)COc1cccc(C)c1)c1ccc(Cl)cc1 the results were MT1-MMP act inh 0, PABP polyA inh -6, CSC inhib -4, eIF4H inh -2, Env fusion inh 4, Rce1 inhib inactive, UUG fidelity -12 and MT1-MMP act inh RFP 0.
CCOC(=O)c1cccc(NS(=O)(=O)c2ccc(NC(C)=O)cc2)c1 was read as MT1-MMP act inh -3, PABP polyA inh -2, CSC inhib 8, eIF4H inh -4, Env fusion inh 106*, Rce1 inhib inactive, UUG fidelity 0 and MT1-MMP act inh RFP -19.
Screening COC(=O)C1C2CC3c4[nH]c5cc(OC)ccc5c4CCN3CC2CC(OC2CCCCO2)C1OC (configuration not stated) returned MT1-MMP act inh -39, Env fusion inh 2, UUG fidelity 7 and MT1-MMP act inh RFP 3.
Screening COc1ccc(NC(=O)c2ccc(C)cc2)c[n+]1[O-] returned MT1-MMP act inh -3, PABP polyA inh -8, CSC inhib -9, eIF4H inh -3, Env fusion inh -13, Rce1 inhib inactive, UUG fidelity -15 and MT1-MMP act inh RFP 0.
For CN(Cc1cc(=O)[nH]c2ccccc12)C(=O)c1ccccc1 the results were MT1-MMP act inh 2, PABP polyA inh -8, CSC inhib -8, eIF4H inh -8, Rce1 inhib inactive and MT1-MMP act inh RFP 1.
COc1ccc(C(O)c2nc(-c3cncnc3)cs2)cc1 (configuration not stated) was read as MT1-MMP act inh 16, Env fusion inh 8, UUG fidelity -9 and MT1-MMP act inh RFP -2.
Screening O/N=C/c1ccccc1OCc1ccccc1F returned MT1-MMP act inh -4, PABP polyA inh 4, CSC inhib -3, eIF4H inh 9, Env fusion inh -1, Rce1 inhib inactive, UUG fidelity -10 and MT1-MMP act inh RFP -2.
Screening COc1ccccc1[C@@H]1C(c2cccc(C)c2)=NN(c2ccccc2)[C@H]1C(=O)N1CCOC1=O returned MT1-MMP act inh -2, PABP polyA inh 11, CSC inhib -7, eIF4H inh -3, Env fusion inh 49, Rce1 inhib inactive, UUG fidelity -3 and MT1-MMP act inh RFP -1.
For COc1cc(CNc2ccccc2SC)cc(OC)c1OC the results were MT1-MMP act inh 12, PABP polyA inh -1, CSC inhib -7, eIF4H inh -2, Rce1 inhib inactive and MT1-MMP act inh RFP -12.
Screening COc1ccc(C2CC(C)(c3ccc(OC)cc3OC)Nc3ccccc3N2)c(OC)c1 (configuration not stated) returned MT1-MMP act inh 5, PABP polyA inh -2, CSC inhib 14, eIF4H inh -18, Env fusion inh 7, Rce1 inhib inactive and MT1-MMP act inh RFP 3.
Screening CCOc1ccc(C(=O)COC(=O)CNC(=O)C2CCCCC2)cc1 returned MT1-MMP act inh 0, CSC inhib 2, UUG fidelity -20 and MT1-MMP act inh RFP 1.
Screening O=C(NNC(=O)c1ccc(O)cc1O)c1ccc(Cl)cc1 returned MT1-MMP act inh 4, PABP polyA inh -2, CSC inhib 12, eIF4H inh -14, Rce1 inhib inactive and MT1-MMP act inh RFP 8.
Screening CCSc1nc2c(c(=O)[nH]c(=O)n2C)n1C/C=C(/C)Cl returned MT1-MMP act inh 5, PABP polyA inh 11, CSC inhib -3, eIF4H inh 1, UUG fidelity -3 and MT1-MMP act inh RFP 12.
Screening O=C(O)CSc1nc2ccccc2n1-c1ccccc1 returned MT1-MMP act inh -1, PABP polyA inh 1, CSC inhib 6, eIF4H inh -2, Env fusion inh 7, Rce1 inhib inactive and MT1-MMP act inh RFP 3.

Source: PubChem BioAssay
